# Screens from PubChem.
# Biofilm kill mix: mixtures killing C. albicans biofilm; inhibition, % at 7.6 µM; C. albicans biofilm persisters + clotrimazole, fluorescence viability; primary screen in compound mixtures of four per well; hit rate 0.02% among 120,000;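 active = inhibition above 30.3% in the primary screen of four-compound pools, then above 30% when the compound was retested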;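 also: compounds exposed to preformed 24 h biofilms for 48 h; the number belongs to the whole pool; some results filed as inactive read as strong as hits; inactives centre near 12; 0% = biofilm with clotrimazole alone and 100% = kill control; retested singly at about 60 µM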
#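 Incubation: 24 h biofilm formation, then 48 h compound exposure, 37 °C | Material: C. albicans biofilms | Buffer or medium: RPMI/MOPS medium, pH 7.0 | Measured by: 2-h Alamar Blue fluorescence, 535/590 nm excitation/emission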
# * marks the source's active call; other numbers are inactive results. This is a subset, so the mix of outcomes need not match the whole.
SMILES,Biofilm kill mix
CN1CCC(c2c[nH]c3ccccc23)C1 (stereo not given),14.9
Cc1ccc(-c2ccc(=O)n(CCC(=O)N3CCC4(CC3)OCCO4)n2)cc1,8.1
CCOC(=O)C1=C(N)OC2=C(C(=O)CCC2)C12C(=O)N(C)c1ccccc12 (stereo not given),16.6
CSCc1nnc2n1-c1ccc(Cl)cc1C(c1ccccc1)=NC2,7.6
CCN(CC)C(=O)c1ccc2c(c1)C1C(Cl)C(Sc3ccccc3[N+](=O)[O-])CC1C(C(=O)O)N2 (stereo not given),6.0
CCCCC(=O)N/N=C/c1c(O)n(CCc2ccccc2)c(=O)[nH]c1=O,8.0
Cc1nn(Cc2c(Cl)cccc2Cl)c(Cl)c1C(=O)O,13.6
Cc1nn(Cc2ccccc2)c(C)c1C(=O)OCC(=O)Nc1cc(S(C)(=O)=O)ccc1Cl,5.9
CN1c2ccc([N+](=O)[O-])cc2CC2(C(=O)NC(=O)NC2=O)C1c1ccccc1 (stereo not given),14.9
CN(C)P(=S)(Nc1ccccc1)C(Cl)(Cl)Cl (stereo not given),-1.8
O=C1NC(=S)N(c2ccc(Br)cc2)C(=O)/C1=C/N1CCN(C(=O)c2ccco2)CC1,-10.9
O=C(c1ccccc1)c1ccccc1N=Cc1c(O)[nH]c(=O)[nH]c1=O,13.1
CCc1ccccc1NC(=O)CNC1CCCCC1,6.5
Cn1c(O)c(/C=N/N2CCOCC2)c(=O)n(C)c1=S,18.0
Cc1ccc2c(c1)=C/C(=C\c1c(O)[nH]c(=O)[nH]c1=O)C(=O)N=2,21.0
COc1ccc(N2C(=O)NC(=O)/C(=C/c3ccc4c(c3)Cc3ccccc3-4)C2=O)cc1,14.6
COc1ccc(CN2C(=O)NC(=O)/C(=C\c3ccco3)C2=O)cc1,14.1
Cc1ccc(-n2c(O)c(C=Nc3ccc(Br)cn3)c(=O)[nH]c2=O)cc1,26.2
COc1cccc(C2(O)CCN(Cc3ccncc3)CC2)c1,19.6
O=C(Cn1cc(C(=O)c2ccccc2F)c2ccccc21)NC1CC1,9.4
CCCCn1c(O)c(/C=N/N2CCOCC2)c(=O)[nH]c1=S,12.8
N#Cc1c(Cl)nc(Cl)c2c1CCN(Cc1ccccc1)C2,18.5
O=C(Nc1ccc(Cl)cc1)OC1CN2CCC1CC2 (stereo not given),25.4
O=c1[nH]c(=O)n(C2CCCCCC2)c(O)c1C=NCc1cccnc1,9.5
O=c1[nH]c(=S)n(Cc2ccc(F)cc2)c(O)c1C=NCCCn1ccnc1,21.4

# (listing goes on)
SMILES,Biofilm kill mix
CC(C)C(=O)Nc1ccc(N2CCN(C)CC2)c(F)c1,6.3
Cc1cccc(NC2=NCCCS2)c1,19.7
O=P(O)(Oc1ccccc1)OC(c1ccccc1)C(F)(F)F (stereo not given),3.4
CCc1n[nH]c(CCN)n1,10.9
Cc1ccccc1NC1(C#N)CCCCC1,21.5
c1ccc(-c2nnc(C3CC(c4cccnc4)=NO3)o2)cc1 (stereo not given),17.9
CN(C)c1ccc(C(=O)N/N=C/C23CC[C@@H](O)CC2(O)CC[C@@H]2[C@@H]3CCC3(C)C(C4=CC(=O)OC4)CCC23O)cc1 (stereo not given in full),21.4
CC(=NCCCO)c1c(O)n(Cc2ccccc2)c(=O)[nH]c1=O,10.2
C[N+]1(CC2COC(c3ccco3)O2)CCCCC1 (stereo not given),6.2
CC(C)C(=O)Nc1ccc(S(=O)(=O)N2CC3CC(C2)c2cccc(=O)n2C3)cc1 (stereo not given),11.6
CCOP(=S)(OCC)Oc1cc(C)oc(=O)c1,15.4
S=P(Nn1cnnc1)(c1ccc(Br)cc1)c1ccc(Br)cc1,9.6
CC1NCCC2(O)CCCCC12 (stereo not given),13.6
C=CCn1c(O)c(/C=N/NC(=O)c2ccncc2)c(=O)[nH]c1=O,22.0
CC(C)n1c(=O)c(C=Nc2ccc(Cl)cc2)c(O)n(Cc2ccco2)c1=O,11.6
CCc1ccc(-n2c(O)c(C(C)=O)c(=O)[nH]c2=O)cc1 (tested in a mixture with another compound),16.5
Cc1cc(OCCCC(=O)NCc2cccs2)ccc1Cl,9.5
CCOc1ccc(N=Cc2c(O)n(CCc3ccc(OC)c(OC)c3)c(=O)[nH]c2=O)cc1,20.8
C=CCN(c1ccc(C(=O)N(CC)CC)cc1)S(C)(=O)=O,15.7
Cn1cccc1/C=C1/C(=O)NC(=O)N(Cc2ccccc2)C1=O,13.8
Cc1ccc2nc(C)n(-c3ccc(F)cc3)c(=O)c2c1,14.6
Cn1cc(C=C(C#N)C#N)c2ccccc21,29.1
CC(C)CN(C(=O)CN1CC=C(c2ccccc2)CC1)c1c(N)n(CC(C)C)c(=O)[nH]c1=O,21.6
O=C(CCl)NCC1CCCO1 (stereo not given),-0.3
N#CC(C#N)=Cc1ccc(C=C(C#N)C#N)cc1,16.9

# Next section.
SMILES,Biofilm kill mix
CCCCC(CC)CNCC(O)c1ccccc1 (stereo not given),5.3
COc1cc(OC)c(C=O)c(OC(=O)N(C)C)c1,16.7
O=P(O)(Oc1ccccc1)OC(c1ccccc1)C(F)(F)C(F)(F)F (stereo not given),5.2
CN1CCN(CCC(=O)OC2CC3CCC(C2)N3C)CC1 (stereo not given),-3.6
CN1CCCCC1c1ccc(-c2cccnc2)nc1 (stereo not given),1.3
C=CCn1c(O)c(C(C)=NCCc2c[nH]c3ccccc23)c(=O)[nH]c1=O,30.9
Cc1ccc(N2C(=O)NC(=O)/C(=C/c3cnc(-c4ccccc4)nc3)C2=O)cc1C,18.0
CN(C)c1ccc(C=C2C(=O)NC(=O)NC2=O)cc1[N+](=O)[O-],12.6
O=C(c1ccc(N2CCCCC2)c([N+](=O)[O-])c1)N1CCC2(CC1)OCCO2,15.0
Cn1c(O)c(N=Nc2ccc(S(=O)(=O)N3CCOCC3)cc2)c(=O)n(C)c1=O,12.9
CCOc1ccc(-n2c(O)c(C=Nc3ccc(NC(C)=O)cc3)c(=O)[nH]c2=O)cc1,21.8
CCC1CN(C)CCC1(OC(C)=O)c1ccccc1 (stereo not given),13.1
Cc1cc(Cl)ccc1C(=O)C1CCCN(C2CCSCC2)C1 (stereo not given),19.2
CN(C(=O)Oc1ccc(Cl)c2cccnc12)c1ccccc1,13.7
COC(=O)C(=O)N1CC2(C)CNCC(C)(C1)C2=O,36.2
Cc1nonc1OCCNCCNc1ccc([N+](=O)[O-])c2cccnc12,12.9
CC[N+]1(C)CCCC(OC(=O)C(O)(c2ccccc2)c2ccccc2)C1 (stereo not given),17.1
Cc1ccc(-c2nn(CCC#N)cc2C(=O)O)cc1C,15.8
Cc1cccc(-n2c(-c3ccccc3)nc3ccccc3c2=O)n1,19.3
COc1ccc(-c2nn(CCC#N)cc2C(=O)O)cc1,12.7
Cc1ccccc1NC(=O)NCCN1CC1,-1.6
O=c1[nH]c(O)c(Cc2ccc3c(c2)OCO3)c(=O)[nH]1,8.4
Cc1c(C(c2ccc(Br)cc2)c2c(O)c3ccccc3oc2=O)c(=O)n(-c2ccccc2)n1C (stereo not given),8.3
CCCCC/C(=N/O)c1c(C)[nH]c2ccccc12,18.4
Cn1c(O)c(C(=Nc2ccc(F)cc2)c2ccccc2Cl)c(=O)n(C)c1=O,15.5

# In the list so far, these have fluorine:
SMILES,Biofilm kill mix
O=C(Cn1cc(C(=O)c2ccccc2F)c2ccccc21)NC1CC1,9.4
O=c1[nH]c(=S)n(Cc2ccc(F)cc2)c(O)c1C=NCCCn1ccnc1,21.4
CC(C)C(=O)Nc1ccc(N2CCN(C)CC2)c(F)c1,6.3
O=P(O)(Oc1ccccc1)OC(c1ccccc1)C(F)(F)F (stereo not given),3.4
Cc1ccc2nc(C)n(-c3ccc(F)cc3)c(=O)c2c1,14.6
O=P(O)(Oc1ccccc1)OC(c1ccccc1)C(F)(F)C(F)(F)F (stereo not given),5.2
Cn1c(O)c(C(=Nc2ccc(F)cc2)c2ccccc2Cl)c(=O)n(C)c1=O,15.5

# In the list so far, 2 contain a CF3 group.
SMILES,Biofilm kill mix
O=P(O)(Oc1ccccc1)OC(c1ccccc1)C(F)(F)F (stereo not given),3.4
O=P(O)(Oc1ccccc1)OC(c1ccccc1)C(F)(F)C(F)(F)F (stereo not given),5.2

# (more compounds)
SMILES,Biofilm kill mix
O=c1[nH]c(=O)n(C2CCCCC2)c(O)c1C=Nc1ccc(N2CCOCC2)cc1,19.1
CCCCC(=O)N/N=C/c1c(O)n(Cc2ccco2)c(=O)[nH]c1=O,19.2
CC(=O)OC1(c2ccccc2)CCN(C2CCCCC2)CC1C (stereo not given),12.0
COc1ccc(CN2C(=O)NC(=O)/C(=C\c3cccc(OC)c3OC)C2=O)cc1,14.1
CCC(C)n1c(O)c(C=NCCc2ccccc2)c(=O)[nH]c1=S (stereo not given),8.8
C=Cn1ccnc1P(O)(=S)c1nc(C)c(CCOC(C)=O)s1 (stereo not given),5.2
Cc1nc2ccccc2c(=O)n1-c1ccccc1[N+](=O)[O-],-3.1
CN1CCN(/N=C/c2c(O)n(C)c(=O)n(C)c2=O)CC1,-15.4
CCOC(=O)C1(c2ccccc2)CCN(CC(=O)Nc2cccc3ccccc23)CC1,9.6
O=C1C=Cc2ccccc2C1=O,11.6
N#Cc1ccccc1NC(=O)CN1CC=C(c2ccccc2)CC1,8.5
C=CCN1C(=O)/C(=C\c2ccc(N3CCOCC3)o2)C(=O)NC1=S,5.7
O=C1/C(=C\c2ccc(Cl)c(Cl)c2)N2CCC1CC2,3.6
Cc1cc(C)cc(N2C(=O)NC(=O)/C(=C/c3cccn3-c3ccc(Cl)cc3)C2=O)c1,-6.2
Cc1ccc(-n2c(O)c(C=NCCCn3ccnc3)c(=O)[nH]c2=O)cc1,20.3
CN(C)C(=O)Oc1cccc(-c2cn3cc(Cl)ccc3n2)c1,8.0
O=C(CN1CCCC1=O)NCCc1ccccc1,8.8
O=C(c1ccc(N2CC3CC(C2)c2cccc(=O)n2C3)c([N+](=O)[O-])c1)N1CCCC1 (stereo not given),16.5
COc1ccc(CC2c3cc(OC)c(OC)cc3CCN2C)cc1O (stereo not given),14.9
COc1ccc2[nH]c(C)c(CCNCc3cc(OC)c(OC)c(OC)c3)c2c1,17.6
O=c1[nH]c(=O)n(C2CCCCC2)c(O)c1/C=C/C=Nc1ccccc1,4.2
CC1CN=C(Nc2ccc(F)c(Cl)c2)S1 (stereo not given),14.6
CC(=O)N1CCC2(CC1)CC(=O)c1cc(OCC(=O)N3CCC4(CC3)OCCO4)ccc1O2,0.0
CN1CCC(O)(c2ccc(Cl)cc2)C(C(=O)c2ccc(Cl)cc2)C1 (stereo not given),17.0
COCCNCCOc1ccc(C(C)(C)c2ccccc2)cc1,15.3

# Remaining list, next part:
SMILES,Biofilm kill mix
CC(=O)Nc1nnc(CCN(CCc2nnc(NC(C)=O)s2)[N+](=O)[O-])s1,10.2
O=c1[nH]c2ccccc2n1CCCN1CCC(n2c(=O)[nH]c3cc(Cl)ccc32)CC1,2.0
CC1CCCCN1Cc1ccc(Cl)nc1 (stereo not given),7.4
CC(C)NC(=O)c1ccc(N2CC3CC(C2)c2cccc(=O)n2C3)c([N+](=O)[O-])c1 (stereo not given),13.6
CN1C(=O)C(=Cc2sc(=O)n(-c3ccccc3)c2N2CCCCC2)C(=O)N(C)C1=O,15.9
CCCn1c(C(=O)c2ccc(OC)cc2)nc2ccccc21,24.9
CCc1ccc(CN2CCN(C(=O)Cc3ccccc3)CC2)cc1,8.7
CCOC(=O)C1(CCc2ccccc2)CCN(Cc2cccc3cnccc23)CC1,2.7
O=C(C[n+]1ccn(CCCNP2(=O)C=C(c3ccccc3)OC(c3ccccc3)=C2)c1)c1ccccc1,17.2
CC(=O)c1ccc(-c2ccccc2)cc1,6.9
C=C(CO)CC1CC(O)[C@]2(C)OC3CC4OC5C[C@]6(C)O[C@]7(C)CCC8OC9C[C@]%10(C)OC%11C(C)=CC(=O)OC%11CC%10OC9C[C@@H](C)C8OC7CC6O[C@]5(C)C/C=C\C4OC3CC2O1 (stereo not given in full),18.9
O=C(CCl)Nc1nccs1,6.8
O=c1[nH]c(=O)n(Cc2ccco2)c(O)c1/C=N/N1CCCCCC1,13.3
O=C(Nc1cccc2ccccc12)N1CCC2(CC1)OCCO2,12.1
O=C1NC(=O)N(Cc2ccccc2)C(=O)/C1=C\N1CCCc2ccccc21,7.3
O=C(Cc1ccccc1)N1CCN(C2CCCCCC2)CC1,-3.7
Cc1cc(C=C(C#N)C#N)ccc1N1CCCC1,24.5
CCN(CC)c1ccc(C=C2C(=O)NC(=S)NC2=O)cc1,18.3
O=[N+]([O-])c1ccc(N2CCCC2)c2ccncc12,11.3
CC1Oc2cc3c(-c4c(O)cc(O)c5c(O)c6c(cc45)OC(C)C(C)C6=O)c(O)cc(O)c3c(O)c2C(=O)C1C (stereo not given),11.2
O=C1NC(=O)C(CCc2ccncc2)(Cc2ccc(OCc3ccccc3)cc2)C(=O)N1,23.2
Cn1c(O)c(/C=C2\N=c3ccccc3=C2CCNC(=S)NC2CC2)c(=O)n(C)c1=O,7.1
CC1(C)C(=O)C=C[C@]2(C)[C@H]3CC[C@@]4(C)[C@H](c5ccoc5)OC(=O)[C@H]5O[C@]54[C@]3(C)[C@H](O)C[C@@H]12,9.8
COC(=O)c1ccccc1N=Cc1c(O)[nH]c(=S)[nH]c1=O,18.7
CCC(=NCCc1ccccc1)c1c(O)[nH]c(=O)[nH]c1=O,27.5
O=C(O)C1C2c3ccccc3C(c3ccccc32)C1C(=O)Nc1ccccc1 (stereo not given),23.0
CC1=NCCc2c1[nH]c1ccccc21,27.3
O=c1[nH]c(O)c(C=NC2CCCCC2)c(=O)[nH]1,12.1
CC(C)Oc1ccc(CC2(CCc3ccncc3)C(=O)NC(=O)NC2=O)cc1,19.0
COc1ccc(-n2c(O)c(C(C)=Nc3ccc4c(c3)CCC4)c(=O)[nH]c2=O)cc1,9.8
